Marburg entry inh: Marburg virus entry inhibition; Marburg virus pseudotyped entry inhibition, cell reporter; control for the full effect not named in the record; about a third of the inactives were read at about 46 µM; Potency, µM (titrated, usually from 37.8 µM), without a hit: at the highest dose activity change, negative = inhibition, most hits filed as inhibitors; 1.8% of 300,000 active; AID 540276; active = well fitted inhibition curve with a large enough effect; inconclusive = small, poorly fitted or top-dose-only effect, or effect the other way; inactive = flat fitted curve, though single readings scatter; tested in HEK293 cells; about a fifth of its hits are not listed in these tables; also: % is scaled to controls: 0 for no effect and ±100 for the full control effect; luciferase read-out
NS1 function inh: influenza NS1 inhibition. S. cerevisiae slowed by influenza A NS1, growth recovery by OD600. Potency, µM (highest dose often 46.1 µM), for the others: at the top dose activity, positive = more growth. 0.4% of 270,000 active; active means well fitted rising curve with a large enough effect; inconclusive means small, poorly fitted or top-dose-only effect; inactive means no such curve, though single readings can be large or run the other way; also: nearly all actives have a fitted effect of over 50% in size
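OD600 was taken as the measure of yeast growth restored by compound in an NS1-expressing S. cerevisiae strain. Cells had been washed out of glucose medium and diluted 1:100 into galactose -URA medium, pH 6.0.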
Lassa entry inh: inhibitors of Lassa virus binding or cell entry; Potency, µM (titrated, usually from 37.9 µM), without a hit: top-dose activity change, negative = inhibition, usual class: inhibitors; Lassa virus pseudotype entry inhibition, cell reporter; control for the full effect not named in the record; 1.2% of 300,000 active; active means well fitted inhibition curve with a large enough effect; inconclusive means small, poorly fitted or top-dose-only effect, or effect the other way; inactive means flat fitted curve, though single readings scatter; tested in HEK293 cells; also: % is scaled to controls: 0 for no effect and ±100 for the full control effect; nearly all actives have a fitted effect of over 50% in size; luciferase read-out
RE007 growth inh: less growth of the S. pombe RE007 Vpr strain | S. pombe RE007 Vpr strain, BacTiter-Glo ATP luminescence, 24 h; control for the full effect not named in the record | Potency, µM (doses to about 92.2 µM), for inactives: at the highest dose activity change, negative = less growth | AID 651644 | 0.21% of 360,000 active; active = well fitted falling curve with a large enough effect; inconclusive = small, poorly fitted or top-dose-only effect; inactive = no such curve, though single readings can be large or run the other way;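 also: % is scaled to controls: 0 for no effect and ±100 for the full control effect; nearly all actives have a fitted effect of over 50% in size; the assay follows cell death caused by Vpr and the record does not say whether a fall means rescue or toxicity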
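Fission yeast strain RE007, carrying one chromosomally integrated HIV-1 vpr copy, was seeded at OD 0.01 in PMG+AL medium with 23 nL pinned compound. After 24 h at 30 °C and 99% humidity, viability was read by BacTiter-Glo luminescence.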
Cruzain inh noDet: inhibitors of Trypanosoma cruzi cruzain without detergent; Potency, µM, for inactives: max response, negative = inhibition, actives largely listed as inhibitors; P25779; 2.3% of 200,000 active; purified cruzain, Z-FR-AMC fluorescence, no detergent;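 also: plate controls were enzyme without inhibitor for no effect and buffer without enzyme for full effect; nearly all actives have a fitted effect of over 40% in size; top concentration of the series not given in the record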
Target sequence (P25779 123-467 limits assumed): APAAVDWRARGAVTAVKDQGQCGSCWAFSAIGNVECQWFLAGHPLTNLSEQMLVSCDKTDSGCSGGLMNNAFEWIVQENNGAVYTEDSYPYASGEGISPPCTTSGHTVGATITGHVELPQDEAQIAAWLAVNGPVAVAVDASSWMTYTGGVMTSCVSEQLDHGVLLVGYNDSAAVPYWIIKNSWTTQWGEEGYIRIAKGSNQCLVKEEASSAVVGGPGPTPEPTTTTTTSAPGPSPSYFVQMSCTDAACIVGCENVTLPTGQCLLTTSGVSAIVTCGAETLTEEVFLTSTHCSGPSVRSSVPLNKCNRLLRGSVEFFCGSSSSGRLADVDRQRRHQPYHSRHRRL
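Detergent-free condition (0.00005% Triton X-100) in acetate buffer pH 5.5 with DTT. 1.5 nM enzyme and compound were pre-mixed 15 min, then 2 uM Z-FR-AMC substrate added; reaction progress from fluorescence change between first and third reads (60 s).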
StopGo reporter: lowers the luciferase signal of an FMDV 2A StopGo reporter. human cells with a luciferase reporter of 2A StopGo recoding; control for the full effect not named in the record. Potency, µM (series often up to 57.9 µM), inactives show top-dose signal change, negative = less light. 1.2% of 410,000 active; active = well fitted falling curve with a large enough effect; inconclusive = small, poorly fitted or top-dose-only effect; inactive = no such curve, though single readings can be large or run the other way; tested in HEK293T cells; also: % is scaled to controls: 0 for no effect and ±100 for the full control effect; nearly all actives have a fitted effect of over 45% in size; luciferase light after 4 h
SARS PLP yeast: blocks SARS-CoV papain-like protease in a yeast assay; S. cerevisiae expressing SARS-CoV PLpro, growth rescue; control for the full effect not named in the record; Potency, µM (titrated, usually from 32.9 µM), without a hit: at the top dose activity, positive = growth rescue; 0.19% of 330,000 active; AID 485353; active means well fitted rising curve with a large enough effect; inconclusive means small, poorly fitted or top-dose-only effect; inactive means no such curve, though single readings can be large or run the other way; also: 0% is about no effect; nearly all actives have a fitted effect of over 55% in size; growth read by luminescence after 48 h
Cruzain Triton: cruzain (T. cruzi) inhibition with detergent | P25779 | 0.43% of 200,000 active | Potency, µM, inactives show max response, negative = inhibition, usual class: inhibitors | purified cruzain, Z-FR-AMC fluorescence, 0.01% Triton;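 also: plate controls were neutral wells for no effect and buffer without enzyme for full effect; nearly all actives have a fitted effect of over 40% in size; top concentration of the series not given in the record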
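Purified cruzain (1.5 nM final) was preincubated with compounds for 15 min at room temperature in 100 mM sodium acetate pH 5.5, 5 mM DTT, 0.01% Triton X-100. Reaction started with 2 uM Z-FR-AMC; AMC fluorescence change over 60 s gave activity.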
Numbers without * were called inactive; ? = inconclusive; nt = no result given; [ ] = another dose, or the depositor's remark. Unless noted, calls follow the shape of the dose curve; as a rule, active = well fitted curve in the direction sought with a large enough effect; inconclusive = small, poorly fitted or top-dose-only effect, or another doubt; inactive = no such curve, though single readings can be large; an effect the other way counts as inactive or inconclusive. Potency is read from the fitted curve at half-maximal effect.

#	molecule	Cruzain inh noDet	Cruzain Triton	Marburg entry inh	SARS PLP yeast
1	CC(C)Nc1ncnc2ccc(Br)cc12	-8%	-7.4%	?	-7%
2	COc1ccccc1NC(=O)c1sc2nc(C)c(C(=O)Nc3ccc(C)cc3C)c(-c3cccs3)c2c1N	?	-3.2%	-21%[46.1 µM]	nt
3	NS(=O)(=O)c1ccc(NC(=O)/C=C/c2ccccc2Cl)cc1	nt	nt	-2%	-2%
4	CN1CCC(=NNC(=O)C(=O)Nc2ccccc2)CC1	-2%	5.4%	4%	-3%
5	Cc1cc([N+](=O)[O-])nn1CC(=O)N/N=C/c1ccccc1Br	nt	nt	22%	1%
6	COc1ccc(COC(=O)C2=C(C)NC(=O)CC2c2cccc(Cl)c2Cl)cc1 (configuration not stated)	0%	-3.4%	-6%[46.1 µM]	nt
7	Cc1cc(Br)ccc1NC(=O)CNC(=O)c1ccc(-n2cncn2)c([N+](=O)[O-])c1	nt	nt	0%	nt
8	CCCN(CC(=O)Nc1ccc(F)c(F)c1F)C(=O)c1ccc2c(=O)n3c(nc2c1)CCC3	nt	nt	-7%	2%
9	CC(=O)N1CCN(S(=O)(=O)c2cccc(C(=O)N(Cc3ccccc3)c3cccc(C)c3)c2)CC1	nt	nt	?	-2%
10	COC(CNC(=O)c1ccc2c(c1)ncn2C1CCCCCC1)OC	nt	nt	nt	-1%
11	O=C(CCCN=C1NS(=O)(=O)c2ccccc21)OCc1ccc(F)cc1	nt	nt	1%	-2%
12	COc1ccccc1CNC(=O)C1CCC(CNS(=O)(=O)c2ccc(C)cc2)CC1 (configuration not stated)	nt	nt	?	3%
13	Cc1ccc(-c2nnc(SCC(=O)N3CCOCC3)nc2-c2ccc(C)cc2)cc1	?	-8.0%	?	4%
14	CC(C)(C)CN1CCN(CCCc2ccccc2)C(CCO)C1 (configuration not stated)	nt	nt	?	2%
15	COC(=O)C1CCN(C2CC(=O)N(c3cc(C)cc(C)c3)C2=O)CC1 (configuration not stated)	nt	nt	-28%[46.1 µM]	-5%

#	NS1 function inh	StopGo reporter	Lassa entry inh	RE007 growth inh
1	-14%	?	?	10%
2	nt	-15%	-4%[46.1 µM]	nt
3	16%	15%	16%	1%
4	-13%	4%	1%	9%
5	0%	0%	0%	-3%
6	nt	-15%	12%[46.1 µM]	nt
7	nt	-1%	7%	6%
8	nt	-6%	1%	-3%
9	nt	41%[activator]	0%	9%
10	0%	-13%	nt	-7%
11	nt	-7%	-10%	2%
12	-13%	0%	-12%[46.1 µM]	-2%
13	-8%	-6%	?	12%
14	-7%	-13%	-26%	-10%
15	nt	-10%	17%[46.1 µM]	35µM*

Other entries
#	molecule	Cruzain inh noDet	Cruzain Triton	Marburg entry inh	SARS PLP yeast
16	CC(=O)N[C@@H](Cc1ccc(O)cc1)CN1C(N)=NC[C@@H]1CC(C)C	nt	nt	nt	0%
17	O=C(Nc1ccc(Oc2ccccc2)cc1)C1CCCN(c2ncccn2)C1 (configuration not stated)	-9%	1.7%	5%	1%
18	CCOc1ccc(CCNC(=O)c2cc(S(=O)(=O)N3CCOCC3)ccc2C)cc1OCC	nt	nt	-5%	-2%
19	COc1ccc(Cn2ccc3nc(C)c(C(=O)Nc4cc(C)cc(C)c4)cc3c2=O)cc1	?	-7.4%	nt	nt
20	O=C(c1ccc(Cl)c(S(=O)(=O)N2CCCCC2)c1)N1CCCCC1	nt	nt	-24%[46.1 µM]	-1%
21	CCN(CC)CCN(C(=O)c1ccc2ccccc2c1)c1nc2ccc(F)cc2s1	nt	nt	?	-19%
22	CN(CCc1ccccn1)S(=O)(=O)c1ccc2c3c(cccc13)C(=O)N2	-11%	-4.6%	2%	-2%
23	Cc1cccc(C(=O)N2CCC(=O)N(C(COCc3cccc(C(F)(F)F)c3)Cc3ccccc3)CC2)c1 (configuration not stated)	?	-8.7%	?	-6%
24	CCn1c(/N=C/c2c[nH]c3ccccc23)nc2ccccc21	13%	-13%	3%	-5%
25	COC(=O)Nc1ccc(S(=O)(=O)N2CCC(C)CC2)cc1	-3%	7.9%	2%	-5%
26	O=C(CNC(=O)c1ccc(F)cc1)OCc1cc(=O)n2ccsc2n1	0%	-6.6%	nt	nt
27	O=C(NNC(=O)c1ccc(Oc2ccc(C3SCCS3)cc2)o1)c1ccc(Cl)cc1	nt	nt	nt	2%
28	CCCCn1c(SCC(=O)c2ccc(O)c(O)c2)nc2ccsc2c1=O	-15%	-17%	-8%	?
29	CC1=C(C(N)=O)C(c2cccc(O)c2)n2ncnc2N1 (configuration not stated)	-4%	-1.3%	nt	nt
30	CCCC(C)c1nnc(NC(=O)CS(=O)(=O)Cc2ccccc2)s1 (configuration not stated)	-5%	-4.9%	-3%	0%

#	NS1 function inh	StopGo reporter	Lassa entry inh	RE007 growth inh
16	-5%	-10%	nt	-2%
17	-13%	-5%	-10%	4%
18	nt	-24%	2%	0%
19	nt	-19%	13%[46.1 µM]	nt
20	0%	32%[activator]	?	-17%
21	-52%	-19%	9%[46.1 µM]	-15%
22	0%	-20%	-15%	-1%
23	-1%	?	?	18%
24	-112%	56%[activator]	8%	17%
25	-7%	-3%	6%	1%
26	nt	-3%	15%[46.1 µM]	nt
27	1%	?	nt	6%
28	18%	-8%	-7%	10%
29	nt	-6%	-1%[46.1 µM]	nt
30	18%	-8%	11%	-2%

Next part
#	molecule	Cruzain inh noDet	Cruzain Triton	Marburg entry inh	SARS PLP yeast
31	Cc1cc(C)c2c(c1)OC(=O)CC2c1ccccc1C (configuration not stated)	-4%	0.0%	nt	3%
32	COc1ccc2c(c1)CC(C(=O)NCCN1CCN(c3cccc(Cl)c3)CC1)CO2 (configuration not stated)	-4%	-4.1%	nt	nt
33	CC(C)CCC(O)(CCC(C)C)C(=O)NN1CCCCC1	8%	2.6%	-7%	24%
34	O=C(O)Cc1ccc(NC(=S)NCc2ccco2)cc1	-22%	-1.1%	?	15%
35	CC(C)c1ccc(NC(=O)Cn2ncc3ccccc32)cc1	nt	nt	nt	0%
36	COc1cccc(NC(=O)c2ccc(NCCCN3CC(C)CC(C)C3)c([N+](=O)[O-])c2)c1 (configuration not stated)	nt	nt	-27%[46.1 µM]	-3%
37	CC12CCC(C(=O)NCc3ccc4c(c3)OCO4)(OC1=O)C2(C)C (configuration not stated)	5%	4.0%	7%	?
38	COc1ccc(NC(=O)Cc2coc3cc(C)cc(C)c23)c(OC)c1	-3%	-4.2%	7%[46.1 µM]	nt
39	Cc1cc(C)c2cc(C#N)c(SCC(=O)NCc3ccco3)nc2c1	?	-8.3%	-31%[46.1 µM]	-10%
40	COc1ccc2cc(CN(CC3CCCO3)C(=S)Nc3ccccc3)c(=O)[nH]c2c1 (configuration not stated)	nt	nt	?	0%
41	CCCS(=O)(=O)NCCc1sc2nc(-c3ccc(F)cc3)nn2c1C	-7%	-2.2%	nt	nt
42	Cc1cc(NC(=O)c2noc3c2CCc2ccccc2-3)no1	?	0.2%	nt	-1%
43	Cc1ccc(C)c(N(C)C(=O)c2cc3c(=O)[nH]c4ccc(C)cc4c3s2)c1	nt	nt	-1%	-2%
44	CC(=O)Nc1cccc(OCC(=O)Nc2sccc2C(N)=O)c1	nt	nt	nt	0%
45	CC1CN(C(=O)CSc2nnc(NC(=O)NC(C)(C)C)s2)CC(C)O1 (configuration not stated)	nt	nt	10%	2%

#	NS1 function inh	StopGo reporter	Lassa entry inh	RE007 growth inh
31	nt	-3%	nt	-4%
32	nt	0%	-18%[46.1 µM]	nt
33	5%	-15%	7%	9%
34	8%	-11%	?	12%
35	-4%	65%[activator]	nt	14%
36	nt	-18%	5%	-3%
37	-5%	-24%	22%	6%
38	nt	-7%	-15%[46.1 µM]	nt
39	?	-16%	-29%	-3%
40	10%	0%	?	-8%
41	nt	-17%	-13%[46.1 µM]	nt
42	-4%	42%[activator]	nt	-2%
43	8%	-30%	nt	-1%
44	0%	47%[activator]	nt	11%
45	nt	-2%	-3%	9%

Looked up one by one from the entries so far (four):
#	molecule	Cruzain inh noDet	Cruzain Triton	Marburg entry inh	SARS PLP yeast
38	COc1ccc(NC(=O)Cc2coc3cc(C)cc(C)c23)c(OC)c1	-3%	-4.2%	7%[46.1 µM]	nt
42	Cc1cc(NC(=O)c2noc3c2CCc2ccccc2-3)no1	?	0.2%	nt	-1%
37	CC12CCC(C(=O)NCc3ccc4c(c3)OCO4)(OC1=O)C2(C)C (configuration not stated)	5%	4.0%	7%	?
40	COc1ccc2cc(CN(CC3CCCO3)C(=S)Nc3ccccc3)c(=O)[nH]c2c1 (configuration not stated)	nt	nt	?	0%

#	NS1 function inh	StopGo reporter	Lassa entry inh	RE007 growth inh
38	nt	-7%	-15%[46.1 µM]	nt
42	-4%	42%[activator]	nt	-2%
37	-5%	-24%	22%	6%
40	10%	0%	?	-8%

(further entries)
#	molecule	Cruzain inh noDet	Cruzain Triton	Marburg entry inh	SARS PLP yeast
46	CC(NC(=O)COC(=O)c1cccs1)c1ccccc1 (configuration not stated)	nt	nt	16%[46.1 µM]	4%
47	CCOC(=O)N1CCN(S(=O)(=O)c2ccc(C(=O)NNc3nc4cc(C)cc(C)c4s3)cc2)CC1	25%	-1.4%	21µM*	7.9µM*
48	Cc1cc(C(=O)NCC(C)C)c2ccccc2n1	1%	1.9%	0%	?
49	C=C(C)CC(Nc1ccc(OC)cc1)c1ccco1 (configuration not stated)	nt	nt	1%[46.1 µM]	0%

#	NS1 function inh	StopGo reporter	Lassa entry inh	RE007 growth inh
46	-4%	9%	nt	35%
47	?	?	?	1%
48	-10%	6%	-2%	2%
49	6%	-9%	-3%	-15%
